NPYLR7 agonist – mosquito NPYLR7 agonism; AID 1259423; activation, % at 10 µM; hit rate 0.15% among 270,000; HEK293T NPYLR7/Galpha15, GCaMP6s calcium fluorescence; in the data active = activation above about 40%;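 note: 0% = vehicle and 100% = reference agonist at the receptor; some compounds past the cut are filed as inactive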
NPYLR7 agonist max-min – recorded beside NPYLR7 agonist, whose call it bears; activation, %; measured here: Max-Min RFU normalised activation; some inactives read as strong as hits;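 span of the calcium signal over five minutes; 0% = vehicle and 100% = native peptide agonist; compound fluorescence can raise it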
An asterisk follows results filed as active; & = joins results of further samples.

Sample of the layout, five compounds:
The line under a structure holds: NPYLR7 agonist | NPYLR7 agonist max-min
CC1(C)CC(C(=O)N2CCOc3ccc(CN4CCc5ccccc5C4)cc3C2)CCO1 (centres undefined)
 : 5 | 1
CCN(C)C(=O)c1coc(CN(Cc2ccccc2)Cc2ccc(Cl)cc2Cl)n1
 : 21 | 23
Cc1ccn(-c2ccccc2NC(=O)NCCc2c(C)noc2C)n1
 : 5 | 1
Cc1cc(C)c(NS(=O)(=O)c2c[nH]c(=O)[nH]c2=O)c(C)c1
 : -11 | -17
O=C(O)c1cc(-c2ccccc2F)nc2cc(-c3ccc(Cl)cc3)nn12
 : -8 | -4

The whole of this part, from the first entry:
The line under a structure holds: NPYLR7 agonist | NPYLR7 agonist max-min
CC1(C)CC(C(=O)N2CCOc3ccc(CN4CCc5ccccc5C4)cc3C2)CCO1 (centres undefined)
 : 5 | 1
CCN(C)C(=O)c1coc(CN(Cc2ccccc2)Cc2ccc(Cl)cc2Cl)n1
 : 21 | 23
Cc1ccn(-c2ccccc2NC(=O)NCCc2c(C)noc2C)n1
 : 5 | 1
Cc1cc(C)c(NS(=O)(=O)c2c[nH]c(=O)[nH]c2=O)c(C)c1
 : -11 | -17
O=C(O)c1cc(-c2ccccc2F)nc2cc(-c3ccc(Cl)cc3)nn12
 : -8 | -4
CCOc1ccc(/C=C2N=C(/C=C/c3ccccc3)OC/2=O)cc1
 : 66* | 62*
CCn1ccnc1CN1C[C@@H]2CN(C(=O)C3CC3)C[C@]2(C(=O)O)C1
 : 1 | 3
CC(C)N(Cc1ccccc1)S(=O)(=O)c1cc2c3c(c1)CCN3C(=O)CC2
 : 8 | 3
CC(C)COc1ccc(NC(=O)C2CC2c2cnn(C)c2)cc1Cl (centres undefined)
 : 1 | -4
CCN1CCN(C(c2cccc(F)c2)C2Sc3ncnn3C2=O)CC1 (centres undefined)
 : -3 | -3
CCCNC(=O)C1(C)CCCN(Cc2ccc(-c3ccccc3)cc2)C1 (centres undefined)
 : -2 | -1
O=S(=O)(c1ccccc1)N(CCN1CCOCC1)Cc1cc(Cl)ccc1OCc1nc(CO)cs1
 : 4 | 11
OCCOc1cccc(-c2nccn2-c2ccc(CCO)cc2)c1
 : -2 | -2
COc1ccc(-c2cc(C(=O)O)n(-c3ccccc3Cl)n2)cc1
 : 2 | 10
CC(=O)Nc1ccc(N=Nc2c(C)[nH]n(-c3ccccc3)c2=O)cc1
 : -5 | 0
CCOc1cccc(N2CCN(C(=O)C3CCC3)C(C)C2=O)c1 (centres undefined)
 : 17 | 21
CN1CCN(C(CNS(=O)(=O)c2cc(F)ccc2F)c2cccnc2)CC1 (centres undefined)
 : 2 | 9
Cc1cc(O)c(C(c2ccncc2)N2CCN(c3ccc(F)cc3)CC2)c(=O)n1Cc1cccnc1 (centres undefined)
 : 12 | 3
CCCc1nc(C(=O)Nc2ccc(NC(=O)CC)c(Cl)c2)cs1
 : 12 | -2
CCC(C)NC(=O)N1CCC(n2nccc2NC(=O)Nc2cccc(F)c2)CC1 (centres undefined)
 : 19 | 7
O=C(NN=Cc1ccc2c(c1)OCO2)c1sc2ccccc2c1Cl
 : -5 | -12
CCNC(=O)Nc1ccc(N(C)C)c(CN(Cc2ccc(F)cc2)C(=O)NC(C)(C)C)c1
 : 0 | 12
COc1ccccc1C(NC(=O)C1CCN(CCc2ccc(Br)cc2)CC1)c1ccccn1 (centres undefined)
 : 4 | 3
COc1ccccc1NC(=O)Cc1noc(C2CC2C)n1 (centres undefined)
 : 8 | 8
COc1cc(-c2nccn2C2CCCCCC2)ccc1OCC(N)=O
 : -4 | -12
COc1cccc(Cc2nsc(N3CCC(n4c(=O)[nH]c5ccccc54)CC3)n2)c1
 : 5 | 9
CC(=O)c1cccc(NC(=O)NC2CC(=O)N(CCc3ccccc3)C2)c1 (centres undefined)
 : 10 | 9
CC(=O)n1cc(/C=C2/C(=O)NC(=S)N(c3ccccc3)C2=O)c2ccccc21
 : 6 | 5
COC(=O)C1=C(C)NC(C)=C(C(=O)OC)C1C(=O)O
 : 5&16 | 5&15
Cc1cccc(OCCSc2nc3ccccc3n2CC(=O)O)c1
 : -29 | -33

(further entries)
The line under a structure holds: NPYLR7 agonist | NPYLR7 agonist max-min
O=C(CN1C(=O)NC2(CCc3ccccc32)C1=O)NCCOc1ccccc1 (centres undefined)
 : -7 | 12
CCc1cccc(Oc2cc(C)nc(SCc3cccc(C(F)(F)F)c3)n2)c1
 : 26 | 24
COc1ccc(CC(=O)OCc2cc(Cl)c3c(c2)OCCCO3)cc1F
 : 4 | 2
CCc1nnsc1C(=O)NC(c1nccn1C)C1CC1 (centres undefined)
 : 25 | 11
COc1ccc(Cl)cc1NC(=O)Cn1nc(C(F)(F)F)cc1C
 : 1 | -2
CN(C)S(=O)(=O)c1ccc(C(=O)NCc2n[nH]c(=S)n2-c2cccc(C(F)(F)F)c2)cc1
 : -1 | -2
CC(C)N(Cc1cnn(C)c1)C(=S)NC1CCCCC1
 : 14 | 13
COCCCN(Cc1ccsc1)Cc1ccc(C(O)(c2cccs2)c2cccs2)o1
 : 11 | 15
CC(=O)NC1CCCN(C(=O)C2CCS(=O)(=O)C2)C1 (centres undefined)
 : 3 | 2
CCc1cnc(C)nc1NCC1CCCNC1 (centres undefined)
 : 5 | 2
COc1ccc(N2CCN(C(=O)c3ccc([N+](=O)[O-])cc3)C(C)C2=O)cc1OC (centres undefined)
 : -9 | -3
Cn1nc(-c2ccccc2)c(CN(Cc2ccco2)CC(O)COCc2ccccc2)c1Oc1ccccc1 (centres undefined)
 : 12 | 18
COC(=O)C1CCN(C(=O)CC(c2ccccc2)c2ccccc2Cl)CC1 (centres undefined)
 : 4 | 4
CCOC(=O)C1(CCOc2ccccc2)CCN(Cc2ccc3nsnc3c2)CC1
 : 0&0 | -4&10
COc1ccc(OC)c(-n2cnnn2)c1
 : 1 | 5
c1ccc(CSc2nn3cc(-c4ccccc4)nc3s2)cc1
 : 0 | -1
Cc1nc(CNC(=O)CSc2nc3ccccc3c(=O)[nH]2)cs1
 : 2 | -3
Cc1ccc(S(=O)(=O)/C(C#N)=C/N2CCN(Cc3ccccc3)CC2)cc1
 : 2 | 1
CCC(C)NC(=O)Cn1c(N)nc(C#N)c1C#N (centres undefined)
 : 4&-2 | 10&-5
Cc1nc2c(c(NCCCN3CCCC3=O)n1)CNC2
 : -17 | -20
CSc1ccc(CN(Cc2ccco2)C(=O)c2ccccc2C(F)(F)F)cc1
 : -9 | -14
CCCn1nccc1NC(=O)NCC1CCc2ccccc2N1 (centres undefined)
 : -13 | -12
Cc1ccc(Cn2ncc3c(C(F)(F)F)cc(-c4ccco4)nc32)o1
 : 5 | 8
O=C(Nc1cccc(C2SCC(=O)N2c2ccc(C(F)(F)F)cc2)c1)C(Cl)c1ccccc1 (centres undefined)
 : 4 | 6
Cc1ccccc1-n1nnnc1-c1nc2ccccc2[nH]1
 : -11 | -21
CN(C)C(=O)CNC(=O)C1(c2ccc(Cl)cc2)CC1
 : -3 | -2
COC[C@H]1C[C@H]2C[C@@H](O)[C@H](NC(=O)c3ccccc3F)[C@]2(O)CO1
 : 5 | 6
C=CCn1c(SCc2ccc(C)cc2)nnc1C1CCS(=O)(=O)C1 (centres undefined)
 : -11 | -8
CC(Sc1n[nH]c(/C=C/c2cccs2)n1)C(N)=O (centres undefined)
 : 2 | 1
CSCC(=O)N1CCc2[nH]nc(-c3ccccc3F)c2C1
 : 4 | 1

Continued.
Compound	NPYLR7 agonist	NPYLR7 agonist max-min
CSc1ccc(-c2nc(CN3CCn4nc(C)cc4C3)c(C)o2)cc1	2	-6
CCC(C)NC(=O)c1ccc(CSc2nnc(C)n2-c2ccccc2C)cc1 (centres undefined)	20	13
CCOc1cccc2c1OC[C@@H]1CN(CCC#N)C(=O)CCN(C(=O)COC)[C@H]21	27	32
CC(C)[C@H]1CC[C@H](C)C[C@@H]1OCC(=O)NCCCOc1cccc([N+](=O)[O-])c1	-6	-13
Cc1nc2n(n1)C(=O)C(C(c1ccc([N+](=O)[O-])cc1)N1CCC3(CC1)OCCO3)S2 (centres undefined)	-4	-6
O=C(CCc1cccnc1)N1CCC(c2ccnc(-c3cccc(O)c3)c2)C1 (centres undefined)	7	6
O=C(c1ccc(Cl)cc1OC1CCN(Cc2ccccc2F)CC1)N1CCCCC1	-4	-5
CC(Cn1ccnc1)NC(=O)Nc1ccc(N2CCCC2)c(Cl)c1 (centres undefined)	0	-5
Cc1nc(N2CCC(C)CC2)ncc1-c1cc(=O)[nH]c(N2CCC(C)CC2)n1	0	29
CC(C)c1ccccc1-n1c(SCc2nc3ccccc3c(=O)[nH]2)nnc1-c1cccnc1	-3	-7
CCOc1ncnc2c1sc1nc(N3CCOCC3)c3c(c12)CC(C)(C)OC3	3	1
NC(=O)C1CCN(C(=O)C2CCCN(S(=O)(=O)N3CCCCC3)C2)CC1 (centres undefined)	4	1
CC(C)C(=O)NNS(=O)(=O)c1ccc(F)cc1	-2	-3
O=C(NCC1CC1)c1nn(-c2cccc(Cl)c2)c(=O)n(Cc2cccc(Cl)c2)c1=O	-2	-1
Cc1cccc(OCc2nc(CN(CCN3CCOCC3)C(=O)NC(C)(C)C)cs2)c1C	8	21
COC(=O)Cc1csc(N)n1	1	4
CCOC(=O)c1cc(-c2ccc(N3CCN(C(C)=O)CC3)cc2)n(-c2ccc(OC)cc2)n1	25	18
CC(=O)N1CCCN(C(C)C(=O)NC(C)c2ccccc2)CC1 (centres undefined)	8	4
C=Cc1ccc(S(=O)(=O)Nc2ccccc2C(=O)NCc2ccc3c(c2)OCO3)cc1	2	-1
Cc1noc(C)c1CN1CCCC(C(N)=O)C1 (centres undefined)	-1	-7
Cc1ccc(NC(=O)CSc2nnc(NC3CC3)s2)cc1	3	1
COc1cc(OC)c2ncc3c(=O)nc4ccccn4c3c2c1	1	-5
Cc1ccc(CN2CCN(Cc3cnn(-c4ccc(F)cc4)c3)CC2CCO)o1 (centres undefined)	2	-2
O=C(Nc1ccc(F)cc1Cl)C1CC=CCC1 (centres undefined)	1	-2
CCn1cnc(NC(=O)N(C)Cc2cccc3ncccc23)n1	-1	10

Single entries from the list.
For NPYLR7 agonist, Cc1ccc(CN2CCN(Cc3cnn(-c4ccc(F)cc4)c3)CC2CCO)o1 (centres undefined) reads 2
For NPYLR7 agonist max-min, CC(C)C(=O)NNS(=O)(=O)c1ccc(F)cc1 reads -3
For NPYLR7 agonist max-min, CCOC(=O)c1cc(-c2ccc(N3CCN(C(C)=O)CC3)cc2)n(-c2ccc(OC)cc2)n1 reads 18
For NPYLR7 agonist max-min, CSc1ccc(-c2nc(CN3CCn4nc(C)cc4C3)c(C)o2)cc1 reads -6
For NPYLR7 agonist max-min, O=C(c1ccc(Cl)cc1OC1CCN(Cc2ccccc2F)CC1)N1CCCCC1 reads -5

Remaining list, next part:
Compound	NPYLR7 agonist	NPYLR7 agonist max-min
CCOC(=O)C1CCCN(C(=O)c2c(C3CC3)nn(-c3ccc(Cl)c(Cl)c3)c2C)C1 (centres undefined)	0	5
CCc1nc2ccc(C(=O)N3CCN(C(=O)c4ccco4)CC3)cn2c1N(C)Cc1ccc(OC)cc1	11	1
COCc1cc(C)nc(OCC(=O)N/N=C\c2ccccc2O)c1C#N	4	-4
O=C(CSc1ccc2nnc(CCNC(=O)c3ccccc3)n2n1)Nc1ccc(F)cc1	-2	-10
COc1ccccc1C1CCCN1Cc1nc(-c2ccoc2)oc1C (centres undefined)	1	-2
O=C(COC(=O)c1ccco1)c1ccc2ccccc2c1	-2	0
CCOC(=O)c1ccc2c(c1)nc(SCc1ccccc1OC(F)F)n2Cc1cccc(F)c1	17	23
C=CCNC(=O)CCCC(=O)OCC(F)(F)C(F)F	-14	-21
Cc1ccc(C(=O)NC(C)c2ccc(S(C)(=O)=O)cc2)cc1 (centres undefined)	0	15
CCCC1CCCC(=C\c2ccc(OC)cc2)/C1=N\OC(=O)NCC (centres undefined)	14	13
CCN(C(=O)CCNC(C)=O)c1nc2c(C)cccc2s1	10	10
c1ccc2cc(-c3nc(-c4ccncc4)no3)ccc2c1	0	-2
CC(C)(C)c1ccc(C(=O)Nc2sc3c(c2C(=O)O)CCC3)cc1	-5	-8
CC(C)=CC(=O)NCC1CCN(Cc2cc(C)ccc2C)C1 (centres undefined)	0	-2
O=c1[nH]c(CN(CCN2CCOCC2)CC(O)COCc2ccco2)nc2scc(-c3ccccc3)c12 (centres undefined)	13	14
CCn1ncnc1CN1CCC2(CC1)C(=O)NCCN2C	1	1
Nc1nc(N)nc(SCC(=O)Nc2ccc3[nH]c(=O)[nH]c3c2)n1	-1	9
O=C(Cn1nc2n(c(=O)c1=O)CCN2c1ccc(F)cc1)Nc1cccc(Cl)c1	7	5
CN(CC(=O)NCc1ccc2c(c1)CC(C)(C)O2)C1CCS(=O)(=O)C1 (centres undefined)	13	7
Cc1ccc(C)c(-n2c(CNC(=O)c3ccco3)nnc2SCC(=O)Nc2nccs2)c1	12	6
CCc1cccc(NC(=O)N2CCCC2C(=O)Nc2nnc(-c3ccc(Br)cc3)s2)c1 (centres undefined)	18	16
O=C(NCc1ccc2c(c1)OCO2)c1cccnc1N1CCN(C(=O)c2ccc(F)c(F)c2)CC1	31	20
CCOc1ccccc1OCc1nn2c(-c3cccnc3)nnc2s1	1	0
CCCCNC(=O)N(Cc1ccc(OS(=O)(=O)c2cccc(C(F)(F)F)c2)cc1)Cc1ccco1	-8	-12
CCOC(=O)c1sc(=NC(=O)c2ccc(Br)cc2)n(C)c1C	-2	-1

New compounds follow
Compound	NPYLR7 agonist	NPYLR7 agonist max-min
O=C(NCc1nnnn1-c1cccc(F)c1)c1ccc2ccccc2c1	2	1
Cc1nnc(CSc2ccc(Cl)c(C(F)(F)F)c2)o1	3	0
Cc1ccc(Oc2ncccc2CNC(=O)c2cnc3ccnn3c2C)cn1	0	-5
Cc1cn2c3c(=O)[nH]c(=O)n(C)c3nc2n1CCCN(C)Cc1ccccc1	5	13
CCOc1ccc(OCC(=O)NC2CCCCCC2)cc1	10	9
CCC#CCN(C)CCC(O)c1ccccc1 (centres undefined)	0	5
Clc1cc2c(cc1Br)OCCN2	1	-1
CCOC(=O)c1cc(-c2ccc(Cl)cc2)n(-c2ccc(C(=O)N3C(C)C=CC3C)cc2)n1 (centres undefined)	-1	-4
O=C(NC1CC(=O)N(Cc2ccc(F)cc2)C1)c1ccccc1-c1ncn[nH]1 (centres undefined)	13	9

Not all compounds are listed; count on the stated rates, not on these rows.
